Screening results deposited in PubChem by National Center for Advancing Translational Sciences (NCATS).
PINK1 expr mod: modulators of PINK1 expression | PINK1 immunofluorescence, high-content cytometry, 24 h | Potency, µM (series often up to 76.6 µM), for inactives: at the highest dose activation (PINK1 increase), actives largely listed as activators | hit rate 0.2% among 410,000 | AID 624263; active = well fitted activation curve with a large enough effect; inconclusive = small, poorly fitted or top-dose-only effect; inactive = flat fitted curve, though single readings scatter; cell line not stated here;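 note: potency is the fitted concentration of half-maximal effect; % of control where 0% means no effect; nearly all actives have a fitted effect of over 65% in size; a mitochondrial uncoupler was the plate control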
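Decision-based qHTS: stable cells, 24 h exposure to five compound concentrations, CCCP as control. Fixed cells stained for PINK1 plus nuclear, mitochondrial and cell markers, cytometer read.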
TRPML1 agonist: activates the human TRPML1 channel | hit rate 0.12% among 410,000 | activation, % (test concentration not listed) | AID 624414 | Q9GZU1 | TRPML1-expressing cells, Ca2+ dye fluorescence, FDSS; host cell line not named in the record; reference of the full effect not given here; in the data active = activation above about 50%; inconclusive = about 30% to 50%; inactive = below about 30%; note: 0% is about no effect; the text of the record puts the active cut at 80%
Target sequence (Q9GZU1 whole entry, looked up): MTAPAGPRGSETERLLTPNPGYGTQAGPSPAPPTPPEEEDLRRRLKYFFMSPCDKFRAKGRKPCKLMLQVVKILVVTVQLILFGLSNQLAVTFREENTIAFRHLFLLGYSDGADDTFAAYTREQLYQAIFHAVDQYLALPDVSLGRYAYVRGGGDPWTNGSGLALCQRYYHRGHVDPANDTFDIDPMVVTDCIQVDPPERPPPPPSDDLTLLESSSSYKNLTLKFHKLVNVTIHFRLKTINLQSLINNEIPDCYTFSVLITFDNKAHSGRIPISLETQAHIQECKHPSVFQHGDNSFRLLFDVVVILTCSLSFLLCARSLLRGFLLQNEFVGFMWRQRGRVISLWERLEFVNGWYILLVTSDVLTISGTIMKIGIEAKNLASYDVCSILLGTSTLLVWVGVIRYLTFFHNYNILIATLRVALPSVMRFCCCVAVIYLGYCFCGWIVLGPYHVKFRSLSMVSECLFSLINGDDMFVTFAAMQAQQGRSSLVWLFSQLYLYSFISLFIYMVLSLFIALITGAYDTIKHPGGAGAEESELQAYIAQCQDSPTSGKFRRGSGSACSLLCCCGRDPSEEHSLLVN
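TRPML1-DL cells, Tet-induced overnight (~16 h, 37 degrees C), loaded 45-90 min at room temperature with Ca8 no-wash calcium dye plus quencher. FDSS fluorescence: 10 s baseline, compound pin-transfer, 110 s agonist read, then EC80 54-4 (4uM final) and 110 s antagonist read.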
Six1-Eya2 blk: inhibitors of human Six1/Eya2 interaction; activity change, % (test concentration not listed); AID 651725; hit rate 0.56% among 360,000; AlphaScreen GST-Six1/His-Eya2 binding, biochemical; hits give low values; control for the full effect not named in the record; Q15475+O00167; in the data active = activity change below about -65%; inconclusive = about -30% to -65%; inactive = above about -30%; note: % is set by controls: 0 for no effect and ±100 for the full control effect; compound concentration not given in the record
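AlphaScreen luminescence read after one hour at 37 °C in darkness. Pin-transferred compounds met GST-Six1 and His-Eya2 protein (5X stock 250 nM/500 nM) plus glutathione donor and Ni-chelate acceptor beads (5X, 50 ug/mL).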
CtBP-E1A blk: CtBP/E1A binding inhibition | activity change, % (no concentration beside the values) | AID 651724 | AlphaScreen GST-E1A/His-CtBP binding, 1536-well; hits give low values; control for the full effect not named in the record | hit rate 0.49% among 340,000; in the data active means activity change below about -65%; inconclusive means about -30% to -65%; inactive means above about -30%; note: % is set by controls: 0 for no effect and ±100 for the full control effect; compound concentration not given in the record
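Steps: dispense buffer (Tris pH 8.0, NaCl 300 mM, TCEP 1 mM, BSA, Tween 20); add 5X protein mix (GST-E1A, His-CtBP, 125 nM each); pin 23 nL compound; 2 h at 37 °C, dark; add 5X beads (50 ug/mL); 1 h; read.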
D2 agonist: activates the human D2 dopamine receptor; P14416; DiscoveRx PathHunter D2 beta-arrestin, luminescence, 90 min; 100% = 57 uM dopamine signal; activation, % (test concentration not listed); hit rate 0.084% among 360,000; in the data active = activation above about 40%; inconclusive = about 15% to 40%; inactive = below about 15%; note: compound concentration not given in the record; the text of the record calls up to 30% inactive
Target sequence (P14416 whole entry, looked up): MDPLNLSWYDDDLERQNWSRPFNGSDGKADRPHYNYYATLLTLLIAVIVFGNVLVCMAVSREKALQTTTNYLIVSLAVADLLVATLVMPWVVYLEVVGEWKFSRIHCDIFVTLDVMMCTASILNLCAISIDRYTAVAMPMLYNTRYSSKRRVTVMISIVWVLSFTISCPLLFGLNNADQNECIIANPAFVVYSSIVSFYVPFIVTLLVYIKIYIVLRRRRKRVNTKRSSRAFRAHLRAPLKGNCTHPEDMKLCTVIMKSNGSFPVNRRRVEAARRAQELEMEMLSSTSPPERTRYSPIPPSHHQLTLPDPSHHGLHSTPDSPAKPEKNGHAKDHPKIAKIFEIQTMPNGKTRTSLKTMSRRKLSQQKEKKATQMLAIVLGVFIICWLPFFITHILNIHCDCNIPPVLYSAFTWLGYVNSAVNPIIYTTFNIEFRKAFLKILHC
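Agonist mode: compounds alone added to overnight-plated D2 PathHunter cells for 90 min at 37 C, with 57 uM final dopamine (EC100) defining full response. Beta-arrestin recruitment detected by chemiluminescent reagent, read after 1 h at ambient temperature.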
D2 PAM: positive allosteric modulators of human D2 dopamine receptor. P14416. DiscoveRx D2 beta-arrestin cells, luminescence, 90 min; 100% = 57 uM dopamine signal. potentiation, % (test concentration not listed). hit rate 0.23% among 360,000. AID 624464; active = potentiation of 50% or more; inconclusive = 30% to 50%; inactive = 30% or less;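 note: compound concentration not given in the record; tested on top of an EC20 dose of dopamine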
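PathHunter D2 cells, attached overnight at 37 deg C, received compound in DMSO plus dopamine at EC20 (50 nM final) for 90 min at 37 deg C. Beta-arrestin recruitment was read as luminescence after 1 h with detection reagent at ambient temperature.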
Active calls of the source: *; ? = inconclusive; nt = no result given; & = joins results of further samples; [ ] = dose if it differs, or a comment.

Preview:
Results follow in this order: D2 PAM	PINK1 expr mod	CtBP-E1A blk	Six1-Eya2 blk	TRPML1 agonist	D2 agonist
> COC(=O)[C@H](CO)NS(=O)(=O)c1ccc(C)cc1
    nt	0.1%	-6	2	-0.2	0.8
> CCCCCSc1nc2c(cnn2-c2ccccc2)c(=O)[nH]1
    -21	-1.9%	2	-2	2.3	-2.2
> Cc1ccc2c(c1)C1(OCCCO1)C(=O)N2
    4	1.6%	11	14	-0.5	-3.8

Main list (from the top)
Results follow in this order: D2 PAM	PINK1 expr mod	CtBP-E1A blk	Six1-Eya2 blk	TRPML1 agonist	D2 agonist
> COC(=O)[C@H](CO)NS(=O)(=O)c1ccc(C)cc1
    nt	0.1%	-6	2	-0.2	0.8
> CCCCCSc1nc2c(cnn2-c2ccccc2)c(=O)[nH]1
    -21	-1.9%	2	-2	2.3	-2.2
> Cc1ccc2c(c1)C1(OCCCO1)C(=O)N2
    4	1.6%	11	14	-0.5	-3.8
> CNC(=O)c1cc2cc(OC)ccc2n1CCN(Cc1ccccc1)Cc1ccccc1
    -14	11%	2	-7	-0.5	-1.6
> O=C(NCCc1ccco1)C(=O)NCC1OCCCN1S(=O)(=O)c1ccc(F)cc1 (stereo not drawn)
    5	0.2%	-12	-9	-0.4	-4.1
> Cc1ccccc1-n1ncc2c1CC(C)(C)CC2NC(=O)CCC(F)(F)F (stereo not drawn)
    -2	0.5%	5	1	-0.3	0.7
> Cc1ccc(-n2ncc(C(=O)N3CCN(C(=O)c4ccco4)CC3)c2C2CCN(C(=O)OC(C)(C)C)CC2)cc1C
    -8	-0.1%	-5	6	-0.1	-2.0
> CC1CCCCN1S(=O)(=O)c1ccc(S(=O)(=O)N(Cc2ccccc2)Cc2ccco2)cc1 (stereo not drawn)
    1	nt	9	-1	3.4	-1.2
> CCOC(=O)C1=C(C)N(C)C(=O)NC1c1cccc2ccccc12 (stereo not drawn)
    -2	3.5%	8	-2	1.8	-2.1
> COc1ccc(C(=O)NCCC(=O)N2CCC3(CC2)NCCc2[nH]cnc23)cc1
    -9	-2.0%	-7	1	0.2	-5.1
> CCC(Cc1ccccc1)NC(=O)C1CC1 (stereo not drawn)
    -1	2.3%	3	5	0.5	0.5
> COc1cccc(C2C([N+](=O)[O-])=C(N)Oc3cc(C)oc(=O)c32)c1 (stereo not drawn)
    -4	-0.5%	0	-8	1.2	-2.7
> Cc1cn([C@H]2C[C@H](O)[C@@H](CNC(=O)[C@@H]3CCCN3Cc3ccccc3)O2)c(=O)[nH]c1=O
    1	0.1%	2	7	-0.2	-6.1
> Nc1nc(Cl)nc2c1ncn2C1CCC(CO)O1 (stereo not drawn)
    -3	0.1%	3	0	-0.4	-5.6
> COC(=O)Cc1ccc(NC(=S)NCC(C)C)cc1
    -1	1.9%	-1	0	0.3	-3.1
> N=C(N)c1ccc(N=Nc2c(O)ccc3c2[nH]c2ccccc23)cc1
    -18	-2.9%	-67*	?	0.7	-0.1
> CC(C)COC(=O)N1CCCCC1c1cc(C(=O)NCc2ccccc2)no1 (stereo not drawn)
    -3	1.3%	6	3	1.0	2.4
> Cc1cc(-c2ccc(N3CCOCC3)cc2)nc2ccccc12
    -10	1.0%	23	19	0.5	-3.9
> CN(CC(=O)Nc1ccc(N2CCOCC2)cc1)C(=O)CCNC(=O)c1ccccc1Cl
    -15	-0.8%	-24	9	-0.3	-2.9
> CCCCOc1ccc(Cc2c(COCC)[nH]c(=S)[nH]c2=O)cc1
    -15	3.0%	nt	5	1.1	-4.2
> CC(=O)Nc1ccc(S(=O)(=O)CCC#N)cc1
    -3	-1.5%	2	1	1.6	-1.4
> Cc1ccc(S(=O)(=O)NC(C)C(=O)NC(C)c2cccs2)cc1 (stereo not drawn)
    -3	3.6%	7	6	0.5	-2.6
> COc1cc(C)c(CNC2CCCCC2)cc1C
    -24	-3.0%[38.3 µM]	7	7	-0.5	-3.1
> CSc1nnnn1-c1cccc(O)c1
    -1	0.0%	-9	4	-0.3	0.0
> CCOC(=O)C1CCN(C(=O)c2ccc(N(C)S(C)(=O)=O)cc2)CC1
    6	-3.8%[38.3 µM]	4	4	-0.3	3.4
> CC(=O)N1CCN(C(=O)Cn2c(=O)oc3ccccc32)CC1
    -8	0.6%	4	-2	-0.9	-2.6
> C=C1C(=O)OC2C=C(CO)CCC=C(CO)CC(OC(=O)C(C)C)C12 (stereo not drawn)
    -2	-0.9%	-3	2	-0.1	-4.7
> Cc1ccc(C)c(OCCC(=O)OCC(=O)c2c(N)n(C)c(=O)n(C)c2=O)c1
    -14	-2.0%	-14	-4	3.0	1.9
> O=C(C(c1ccccc1)c1ccccc1)N1CCC(c2nc(-c3ccccc3Cl)no2)CC1
    -6	-3.9%	0	6	2.0	0.1
> COc1ccc(/C=c2/sc3n(c2=O)C(c2ccccc2OC)C2=C(N=3)c3ccccc3CC2)cc1O (stereo not drawn)
    14	0.5%	-16	-17	2.4	1.8
> C=CCC[C@H](Cc1ccc(F)cc1)C(=O)OC[C@@H](Cc1c[nH]c2ccccc12)NC(=O)[C@H](CC=C)CC(=O)N[C@H](CO)Cc1ccccc1
    nt	1.7%	1	0	-0.7	3.6
> COc1ccc(N(CC(=O)NC(C)c2ccccc2)S(=O)(=O)c2ccc(C)cc2)cc1 (stereo not drawn)
    -8	0.3%	-1	0	-1.6	-5.5
> COC(=O)c1c(C)noc1-c1snnc1C
    -15	1.6%	nt	-2	-1.0	-3.7
> CCN(CC)C(=O)C1=C(C)N(Cc2ccccc2)C(=O)C(CC(=O)NCCCCc2ccccc2)C1 (stereo not drawn)
    2	-0.7%	1	-6	-0.1	-8.8
> OC[C@@H]1CN(Cc2ccc3c(c2)OCO3)C[C@H](n2cnc3c(N4CCN(c5ccccc5)CC4)ncnc32)O1
    12	0.9%	?	?	-1.0	12
> CCCCCCCCSC1=CC(=O)C(OC)=C(OC)C1=O
    -37	11%	-1	1	1.7	-13
> Cc1sc(NC(=O)c2ccccc2)c(C#N)c1-c1ccccc1
    0	0.4%	0	-19	4.3	-2.3
> CCN(CC)C(=O)CSc1nc2cc3c(cc2c(=O)n1CCCC(=O)NCc1ccc(OC)cc1)OCO3
    -3	0.4%&0.3%	2	0	0.3&2.5	-3.1
> CSCCC(NS(=O)(=O)c1ccc(C)cc1)C(=O)Nc1ccc(C)cn1 (stereo not drawn)
    -26	0.4%	-3	13	-0.1	-2.1
> O=C(O)CCCN1C(=O)C2C3C=CC(C2C1=O)C1C(=O)N(CCCC(=O)O)C(=O)C31 (stereo not drawn)
    -1	-0.3%	0	0	0.5	-0.4
> CCOc1ccc(S(=O)(=O)NCc2ccco2)cc1
    17	-1.7%	6	2	-1.3	-1.4
> COc1ccc([C@]2(C(C)C)ON(c3ccccc3C(F)(F)F)C2=O)cc1
    -3	-1.1%	nt	16	-0.2	-2.7
> Cc1cc2cc3c(cc2nc1SCC(=O)OC(C)C)OCO3
    3	0.9%	nt	9	-0.2	1.7
> CNC(=O)c1c(NC(NC(=O)c2ccco2)C(=O)c2ccc(Cl)cc2)sc2c1CCCC2 (stereo not drawn)
    -33	5.0%[38.3 µM]	5	-16	0.4	-6.6
> COc1cccc(C2c3c(C)nn(-c4ccc([N+](=O)[O-])cc4)c3N=C3C(=O)Nc4ccccc4N32)c1 (stereo not drawn)
    -12	1.1%	0	-2	3.2	2.2
> O=C(NCc1ccc(F)cc1)C1CCCN(C(=O)Nc2ccccc2)C1 (stereo not drawn)
    0	1.9%	9	-1	-1.1	-1.9
> O=[N+]([O-])c1ccc2nc(N3CCCC3)sc2c1
    -12	-0.8%	nt	3	1.9	0.0
> O=C(Nc1ccc(S(=O)(=O)NCc2ccco2)cc1)c1cccc(F)c1
    -1	4.4%	-19	0	3.3	1.1
> COc1ccc(/C=C(\C#N)C(=O)OCC(=O)Nc2c(C)cccc2C)cc1
    8	0.0%	-4	0	0.3	2.3
> O=C(NC12CC3CC(CC(C3)C1)C2)c1ccc(N2CCNCC2)c([N+](=O)[O-])c1
    0	-1.2%	1	2	-0.3	-8.8

(list continues)
Results follow in this order: D2 PAM	PINK1 expr mod	CtBP-E1A blk	Six1-Eya2 blk	TRPML1 agonist	D2 agonist
> CCCc1ccc2oc(C(=O)N3CCN(c4cnccn4)CC3)c(C)c2c1
    3	3.2%	-27	-18	4.0	4.6
> Cc1ccc(N(CC(O)Cn2nc(C)cc2C)S(=O)(=O)c2ccc3ccccc3c2)cc1 (stereo not drawn)
    -14	8.7%	-10	-6	-0.3	-1.6
> CC1=C(C(=O)N(C)C)CC(CC(=O)NCc2cccs2)C(=O)N1CCC1=CCCCC1 (stereo not drawn)
    1	0.0%	-9	-7	-0.3	-5.3
> COc1cc(OC)nc(Nc2nc(C(N)Cc3ccc(C(F)(F)F)cc3)cs2)n1 (stereo not drawn)
    3	2.3%	-10	-6	1.1	-5.3
> CC(C)NS(=O)(=O)c1ccc(OCC(=O)NCC2CCCO2)c(Cl)c1 (stereo not drawn)
    -2	-3.0%[38.3 µM]	2	7	0.7	-0.5
> COc1ccc(NC(=O)c2ccc(-n3cnnn3)cc2)c([N+](=O)[O-])c1
    17	1.7%	0	12	0.4	1.5
> Cc1ccccc1S(=O)Cc1ccc(C(=O)NCCCN2CCCCC2)o1 (stereo not drawn)
    -14	-1.6%	4	-2	0.2	-3.6
> O=C(CCOc1ccccc1)Nc1ccc([N+](=O)[O-])cc1
    -10	0.5%	-5	-5	-0.2	-4.8
> COC(=O)Cn1c(=O)c2c(nc(Br)n2Cc2ccccc2Cl)n(C)c1=O
    -18	-2.1%	2	-1	-0.2	-3.0
> CC1CC(NC(=O)c2ncn[nH]2)CC(C)(C)C1 (stereo not drawn)
    28	nt	0	3	0.3	-0.3
> Cc1ccc(CNC(=O)COC(=O)c2ccc(Cl)c(N)c2)cc1
    -10	2.7%	-5	-2	0.7	-11
> O=c1c2ccccc2c(-c2ccccc2)nn1Cc1ccccc1
    -1	1.3%	9	14	-0.6	-1.3
> O=C(COC(=O)c1ccc([N+](=O)[O-])o1)NC1CCCCC1
    11	0.3%	-3	-2	1.1	6.0
> Cc1cc(OCC(=O)OCC(=O)N2CCCCC2)ccc1Cl
    -5	0.4%	0	5	-1.0	-0.6
> Cc1cccc(CNc2ccc(C(CC(N)=O)NC(=O)Cc3cccc4ccccc34)cc2[N+](=O)[O-])c1 (stereo not drawn)
    -4	1.6%	0	-6	0.5	-4.1
> COc1ccccc1CNC(=O)C1CCN(c2nc3ccccc3o2)CC1
    0	2.8µM*	-8	-8	0.0	-2.7
> COc1cccc(NC(=O)N2CCN(c3nnnn3-c3ccccc3)CC2)c1
    -5	0.7%	9	-4	-0.1	1.5
> COc1ccccc1CNC(=O)C(C)NS(=O)(=O)c1ccc(C)cc1 (stereo not drawn)
    -3	4.0%[38.3 µM]	5	3	0.2	-2.9
